Screens deposited in PubChem BioAssay by several laboratories.
Ecoli rRNA inh – inhibits bacterial ribosomal RNA function over humanized ribosomes; E. coli WT GFP vs humanized-ribosome RFP mutants, fluorescence, 24 h; hits give low values; DMSO median 0, no signal -100; GFP signal change (wild-type ribosome), % (test concentration not listed); actives 1.6% (n = 350,000);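 active = significant combined selectivity score with lowered wild-type GFP, culture density cut under 30%, mutant RFP and density less affected; inactive = any of these conditions unmet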; also: one replicate is shown; some compounds called inactive have numbers as strong as hits
E coli growth – inhibitors of Escherichia coli growth. OD600, 23 h; hits give low values. OD600 absorbance (concentration not given with the values). actives 0.21% (n = 330,000). AID 1053175;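 active = OD600 absorbance below the run mean of sample wells minus 3.6 SD, in any replicate, cut at about 0.56 in these data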;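 also: stock transfer was 300 nL into about 60 µL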
Vif A3G – inhibitors of Vif binding to APOBEC3G peptide, primary screen, biochemical, TR-FRET, GST-Vif 1-94, biotin-A3G peptide, dose response retest (AID 1117319); TR-FRET GST-Vif / biotin-A3G peptide binding; higher % means a stronger effect; test concentration not given here; strong numbers were not always called active; inhibition, %, or IC50 in µM where a hit was titrated; actives 0.57% (n = 260,000);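 active = above the screen mean plus three standard deviations and confirmed in dose response; inconclusive = results disagree or hit not tested in dose response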;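 also: Vif residues 1-94 fused to GST binding biotinylated APOBEC3G peptide 110-148; 0% = full assay without inhibitor and 100% = GST in place of GST-Vif; retest series ran down from 100 µM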
FGF22 binding – binders of recombinant human FGF22 by thermal shift; Q9HCT0; SYPRO orange fluorescence; percent of sucrose octasulfate shift, DMSO zero; calls only at 9.99 µM; actives 1.5% (n = 340,000); AID 651658;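 active = melting point raised past a set limit in the mean and every replicate; inconclusive = no clear call; three in four hits are not shown here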
Target sequence (Q9HCT0 whole entry, looked up): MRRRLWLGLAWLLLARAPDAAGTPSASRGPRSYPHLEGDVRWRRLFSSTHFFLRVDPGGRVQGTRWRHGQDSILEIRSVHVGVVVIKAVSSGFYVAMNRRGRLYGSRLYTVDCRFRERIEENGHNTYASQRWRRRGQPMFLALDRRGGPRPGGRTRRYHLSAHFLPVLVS
HNF4A DNA FP – change in binding of human HNF4 alpha to DNA | AID 1224865 | HNF4a-FITC DNA binding, fluorescence polarization, 1 h | actives 0.3% (n = 360,000) | activity change, % at 10 µM; in the data active = activity change above about 30%, passing the limit was not always enough;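 also: controls were the assay level and a saturating level of protein; the project sought stronger binding though the title names inhibitors; some compounds called inactive have numbers as strong as hits; positive values seem to mean higher polarization but the record does not say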
AF4-AF9 inh – inhibitors of human MLL-AF4/AF9 interaction | AID 651704 | AlphaScreen, biotin-AF4 peptide binding to FLAG-AF9 | inhibition, % at 10 µM | actives 0.47% (n = 350,000) | P42568;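 active = every replicate reaching a set inhibition limit, whatever the replicate mean, cut at about 25% in these data; inconclusive = mean inhibition reaches that limit but some replicates miss it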;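 also: 0% = plate neutral control median and 100% = total signal loss; the record names both 10 and 1 µM as test concentration; the first replicate is given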
Target sequence (P42568 whole entry, looked up): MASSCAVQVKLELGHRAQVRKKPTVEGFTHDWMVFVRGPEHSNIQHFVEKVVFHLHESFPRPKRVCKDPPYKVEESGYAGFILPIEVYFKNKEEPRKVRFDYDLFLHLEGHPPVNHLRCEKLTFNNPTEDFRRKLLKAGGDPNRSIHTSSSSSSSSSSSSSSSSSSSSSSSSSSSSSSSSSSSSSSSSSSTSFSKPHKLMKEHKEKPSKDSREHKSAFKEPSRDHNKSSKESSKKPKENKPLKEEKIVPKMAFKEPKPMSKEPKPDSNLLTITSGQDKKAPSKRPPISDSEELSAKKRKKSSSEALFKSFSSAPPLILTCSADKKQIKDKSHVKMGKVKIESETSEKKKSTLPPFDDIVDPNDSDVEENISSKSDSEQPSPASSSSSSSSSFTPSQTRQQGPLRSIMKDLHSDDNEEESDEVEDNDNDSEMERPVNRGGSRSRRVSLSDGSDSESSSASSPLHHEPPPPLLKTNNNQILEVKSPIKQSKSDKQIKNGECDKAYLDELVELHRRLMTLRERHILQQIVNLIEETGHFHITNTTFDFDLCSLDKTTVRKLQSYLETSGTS
ALR inh – blocks human ALR sulfhydryl oxidase activity; P55789; purified ALR, DTT oxidation, H2O2 HRP-luminol luminescence; inhibition, % (test concentration not listed); actives 3.8% (n = 290,000);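 active = mean and each replicate at 75% or more; inconclusive = only one of the two met; inactive = neither met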;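 also: stock transfer was 7.5 nL into about 7.5 µL; 0% = neutral wells and 100% = wells with inactivated enzyme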
Target sequence (P55789 whole entry, looked up): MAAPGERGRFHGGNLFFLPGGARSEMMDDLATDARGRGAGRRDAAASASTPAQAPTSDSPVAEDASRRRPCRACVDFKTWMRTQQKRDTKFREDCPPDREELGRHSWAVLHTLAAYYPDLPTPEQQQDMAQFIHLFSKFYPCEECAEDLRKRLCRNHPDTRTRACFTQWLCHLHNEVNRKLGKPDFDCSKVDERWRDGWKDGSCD
Ecoli rRNA inh OD600 – second read-out of Ecoli rRNA inh, no call of its own (marks repeat the call); OD600 change, %; measured here: OD600 growth;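 optical density of the mix in the first replicate; 0 = DMSO median and -100 = no signal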
Ecoli rRNA inh RFP – also measured in Ecoli rRNA inh; calls as there; RFP signal change, %; measured here: RFP humanized mutant strains;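 first replicate; 0 = DMSO median and -100 = no signal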
* = called active by the depositor; i = inactive; ? = inconclusive; nt = not tested or not shown; & = joins results of further samples.

no.	Structure	Ecoli rRNA inh	Ecoli rRNA inh OD600	Ecoli rRNA inh RFP	E coli growth	Vif A3G	FGF22 binding	HNF4A DNA FP	AF4-AF9 inh	ALR inh
1	CCN(CC)S(=O)(=O)c1ccc(NCCc2ccccn2)nc1	3	6	-2.0	0.67	nt	i	3.1	-0.3	-3
2	COCCCN1C(=O)c2[nH]nc(-c3cc(C)cc(C)c3O)c2C1c1ccc(O)c(OC)c1 (centres undefined)	-1	-5	-1.9	0.7	4%	nt	2.6	nt	3
3	COc1ccc(-c2csc(NC(=O)C3CCCO3)n2)cc1 (centres undefined)	nt	nt	nt	0.67	12%	nt	-0.1	nt	6
4	CCC(C)C(N)C1=NC(C(=O)N[C@@H](CC(C)C)C(=O)N[C@H](CCC(=O)O)C(=O)N[C@H](C(=O)N[C@H]2CCCCNC(=O)[C@H](CC(N)=O)NC(=O)[C@@H](CC(=O)O)NC(=O)[C@H](Cc3cnc[nH]3)NC(=O)[C@@H](Cc3ccccc3)NC(=O)[C@H]([C@@H](C)CC)NC(=O)[C@@H](CCCN)NC2=O)[C@@H](C)CC)CS1 (some centres undefined)	15	24	4.4	nt	nt	i	2.1	-4.5	nt
5	CCCCn1c(N)c(N(CC)C(=O)c2ccc(N3CCCC3=O)cc2)c(=O)[nH]c1=O	8	5	-1.4	0.67	12%	i	0.1	-0.9	nt
6	O=C(NCc1cc([N+](=O)[O-])ccc1O)c1cc(-c2ccncc2)nc2ccccc12	-9	-20	5.4	0.71	nt	i	-1.2	0.9	1
7	CCC(C)Oc1nc2c(c(=O)n(C)c(=O)n2C)n1C (centres undefined)	2	-3	3.0	nt	5%	i	1.6	0.0	-5
8	COc1ccc(-c2noc(CCC(=O)O)n2)cc1	nt	nt	nt	0.68	10%	nt	-2.6	nt	nt
9	Cc1ccc(NC(=S)Nc2cc(C)on2)cc1	8	5	2.7	0.68	nt	i	-1.6	-1.9	-8
10	Nc1nc(NC(=O)Cc2ccccc2)nn1-c1ccccc1	nt	nt	nt	0.73	4%	nt	1.1	nt	-1
11	COCC1CCCCN1C(=O)c1ccc(OC)c(OC2CCN(C(C)C)CC2)c1 (centres undefined)	23	21	4.4	0.71	-3%	i	-1.4	-5.1	-14
12	COc1ccccc1CNC(=O)C[C@@H]1C[C@H]2c3cc(NS(=O)(=O)c4ccc(F)cc4)ccc3O[C@H]2[C@H](CO)O1	-3	-18	3.7	nt	nt	i	nt	-0.2	nt
13	O=C(CCn1c(=O)c2sccc2n(CC(=O)OCc2ccccc2)c1=O)NCc1ccccc1	nt	nt	nt	0.67	-9%	nt	6.4	nt	nt
14	CCC(=O)N1CC2(CCN(Cc3ccccc3Cl)CC2)c2c([nH]c3cc(OC)ccc23)[C@H]1CO	-2	-1	6.7	nt	nt	i	nt	5.6	nt
15	CCCC(O)C#Cc1cnc2c(c1)C(=O)N([C@H](C)CO)C[C@H](C)[C@H](CN(C)S(=O)(=O)c1cccs1)O2 (some centres undefined)	0	-2	-0.9	nt	nt	i	nt	-5.3&-1.5	nt
16	Cc1c(C(=O)O)sc2nc(CSc3ncc(C(F)(F)F)cc3Cl)[nH]c(=O)c12	-33*	3.8*	-3.2*	0.69	nt	i	-2.1	1.4	8
17	O=C([C@H]1[C@H](CO)[C@H]2Cn3c(ccc(C4=CCCCC4)c3=O)[C@@H]1N2Cc1nccs1)N1CCCCC1	-2	-5	-0.3	nt	nt	i	nt	0.4	nt
18	Nc1nc2n(n1)C(c1cccc(Br)c1)CC(c1ccc(F)cc1)N2 (centres undefined)	-9	-9	-2.0	0.71	-3%	i	0.4	0.4	0
19	CC(C(=O)N1CCCC1)N1CCN(c2ccccc2O)CC1 (centres undefined)	8	3	-4.0	0.75	nt	i	-0.3	-2.5	nt
20	Cc1ccc(S(=O)(=O)N(C)C[C@@H]2Oc3c(NS(=O)(=O)c4c(C)noc4C)cccc3C(=O)N([C@H](C)CO)C[C@@H]2C)cc1	-2	-13	3.9	nt	nt	i	nt	3.1	nt
21	Cc1ccc(Nc2nc3ccccc3c(=O)[nH]2)cc1C	9	9	-3.1	0.65	-3%	i	2.1	-2.5	8
22	CCOC(=O)c1ccc(-n2ccnc2)c(NC(=O)c2cccc(Br)c2)c1	2	0	4.4	0.67	9%	i	0.5	2.1	-1
23	CCN(CC)CCN(C)C(=O)c1[nH]c(C(F)(F)F)nc1-c1ccccc1	-2	6	-3.0	nt	nt	i	-0.4	-2.7	nt
24	O=C(Nc1ccccc1)NC1CCCCNC1=O (centres undefined)	7	-7	-1.0	0.68	-1%	i	-5.0	-2.7	1
25	COc1ccc(NC(=O)N(C)C[C@@H]2Oc3ccc(NC(=O)CCN4CCOCC4)cc3CC(=O)N([C@@H](C)CO)C[C@H]2C)cc1	0	-5	-2.4	nt	nt	i	nt	-0.8	nt
26	COc1ccc(S(=O)(=O)N2CCC(C(=O)O)(c3ccccc3)CC2)cc1	3	6	-12	0.65	nt	i	0.6	0.4	nt
27	O=C(NCc1ccccc1)[C@@H]1CCCN1C(=O)[C@H]1CCCN1C(=O)c1ccc(F)c(C(F)(F)F)c1	-3	0	0.0	nt	nt	i	nt	-6.7	nt
28	CCCNC(=O)N1C[C@@H](C)[C@@H](OC)CN(C)C(=O)c2ccc(NC(=O)CC)cc2OC[C@@H]1C	-2	3	-0.8	nt	nt	i	nt	-4.5	nt
29	COc1ccc2c3c(n(C)c2c1)[C@H](CO)N(C(=O)Cc1ccccn1)CC31CCN(CC2CCCCC2)CC1	-3	0	0.0	nt	nt	i	nt	3.0	nt
30	COc1ccccc1CNC(=O)c1ccc(N2CCOCC2)c([N+](=O)[O-])c1	-21	-22	-0.1	0.68	nt	i	-2.4	0.9	-13
31	CCC1CCC2(CC1)SCC(=O)N2c1ccccc1 (centres undefined)	-6	12	0.1	0.64	1%	i	1.7	-3.9	-17
32	CCN(c1ccccc1)S(=O)(=O)c1ccc(NC(=O)c2ccco2)cc1	-20	-45	-3.3	0.67	?	i	0.7	5.2	15
33	Cc1cccc(N2CCN(C(=O)CCCSc3nc4ccccc4[nH]3)CC2)c1C	nt	nt	nt	0.72	0%	nt	-2.7	nt	0
34	COc1ccccc1CCNC(=O)CSc1nnc2ccc(-c3cccnc3)nn12	-3	8	10	0.72	-8%	i	0.0	-43	-17
35	CCOC(=O)Cn1c(=O)oc2ccc(C)cc21	7	6	-0.4	0.68	-7%	i	3.4	0.5	-1
36	CC(=O)c1ccc(OC(=O)C(CCS(C)(=O)=O)N2C(=O)c3ccccc3C2=O)cc1 (centres undefined)	nt	nt	nt	0.67	6%	nt	-0.9	nt	3
37	COc1cc(NC(=O)CN2C(=O)COc3ccc(S(=O)(=O)N4CCCC4)cc32)cc(OC)c1	3	9	13	0.62	nt	i	-0.8	0.0	-1
38	C[C@@H]1CN([C@H](C)CO)C(=O)c2cccc(NC(=O)Nc3ccccc3)c2O[C@@H]1CN(C)C(=O)Nc1ccc(F)cc1	0	1	-3.5	nt	nt	i	nt	1.4	nt
39	O=C(Nc1cc2c3c(c1)CC(=O)N3CCC2)c1ccc(Br)o1	-2	5	-2.2	0.7	9%	i	2.6	1.1	-9
40	O=C(CN1CCN(Cc2ccccc2)CC1)NCCc1ccccc1	11	10	2.6	0.62	15%	i	1.5	-8.2	-5
41	O=C(CCS(=O)(=O)c1ccc(Br)cc1)N1CCN(c2ccc(Cl)cc2)CC1	nt	nt	nt	0.74	6%	nt	3.4	nt	7
42	CCN1CCc2c(sc(NC(=O)c3ccc(S(=O)(=O)N4CC(C)OC(C)C4)cc3)c2C(N)=O)C1 (centres undefined)	-3	3	-3.4	nt	nt	i	-2.6	1.1	15
43	CCN1C(=NCCc2ccccn2)N[C@@H](c2cccc(C(F)(F)F)c2)C(C(=O)OC)=C1C	15	2	1.8	nt	nt	i	-1.4	-5.9	-3
44	O=C(/C=C/[C@H]1O[C@@H](n2ccc(=O)[nH]c2=O)[C@H](O)[C@@H]1O)NCC1CCCO1 (some centres undefined)	nt	nt	nt	nt	nt	i	-2.3	-0.8	nt
45	COc1ccc(-c2cc(NCCc3ccncc3)n3ncnc3n2)cc1	nt	nt	nt	0.66	-5%	nt	1.7	nt	-10
46	Cc1noc(C)c1S(=O)(=O)Nc1ccc(C(=O)NC2CCCCC2C)cc1 (centres undefined)	nt	nt	nt	0.71	31%	nt	0.0	nt	1
47	CC(=O)c1ccc(OCc2cc(C(=O)N(C)C3CCOC3)no2)cc1 (centres undefined)	14	13	2.9	0.69	nt	i	-2.0	-2.6	0
48	C[C@H](NC(=O)C[C@@H]1CC[C@H](NC(=O)Nc2ccc3c(c2)OCO3)[C@H](CO)O1)c1ccccc1	5	4	1.7	nt	nt	i	nt	-0.7	nt
49	O=C1N/C(=C/c2cccn2-c2ccc(F)cc2)C(=O)N1Cc1ccccc1F	nt	nt	nt	0.68	5%	nt	12	nt	10
50	CCOC(=O)C1CCN(Cc2nnc(-c3ccccc3C)o2)CC1	14	9	4.2	0.69	-5%	i	-1.0	0.8	-4
51	Brc1ccc(CN2CCCCCC2)cc1	-3	-13	-2.7	0.64	nt	i	-5.0	-1.2	34
52	COc1ccc2c(c1)c(C(=O)N/N=C/c1ccccc1Cl)c(C)n2C	2	5	-0.1	nt	-3%	i	-1.0	1.3	nt
53	COc1ccccc1S(=O)(=O)N(C)C[C@H]1OCc2ccccc2-c2c(n(C)c3ccccc23)C(=O)N([C@@H](C)CO)C[C@@H]1C	2	2	1.5	nt	nt	i	nt	2.0	nt
54	COC(=O)c1ccccc1NC(=O)c1cc2sccc2n1C	nt	nt	nt	0.74	3%	nt	0.7	nt	30

Gathered by group, those above containing a COOH group (4)
no.	Structure	Ecoli rRNA inh	Ecoli rRNA inh OD600	Ecoli rRNA inh RFP	E coli growth	Vif A3G	FGF22 binding	HNF4A DNA FP	AF4-AF9 inh	ALR inh
4	CCC(C)C(N)C1=NC(C(=O)N[C@@H](CC(C)C)C(=O)N[C@H](CCC(=O)O)C(=O)N[C@H](C(=O)N[C@H]2CCCCNC(=O)[C@H](CC(N)=O)NC(=O)[C@@H](CC(=O)O)NC(=O)[C@H](Cc3cnc[nH]3)NC(=O)[C@@H](Cc3ccccc3)NC(=O)[C@H]([C@@H](C)CC)NC(=O)[C@@H](CCCN)NC2=O)[C@@H](C)CC)CS1 (some centres undefined)	15	24	4.4	nt	nt	i	2.1	-4.5	nt
8	COc1ccc(-c2noc(CCC(=O)O)n2)cc1	nt	nt	nt	0.68	10%	nt	-2.6	nt	nt
16	Cc1c(C(=O)O)sc2nc(CSc3ncc(C(F)(F)F)cc3Cl)[nH]c(=O)c12	-33*	3.8*	-3.2*	0.69	nt	i	-2.1	1.4	8
26	COc1ccc(S(=O)(=O)N2CCC(C(=O)O)(c3ccccc3)CC2)cc1	3	6	-12	0.65	nt	i	0.6	0.4	nt

This is a subset. The share of hits here may be higher or lower than overall.
